Screens as filed in PubChem.
MLL AF4-AF9 inh = inhibitors of human MLL-AF4/AF9 interaction. AlphaScreen, biotin-AF4 peptide binding to FLAG-AF9. inhibition, % at 10 µM. actives 0.47% (n = 350,000). AID 651704;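 active = every replicate reaching a set inhibition limit, whatever the replicate mean, cut at about 25% in these data; inconclusive = mean inhibition reaches that limit but some replicates miss it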;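 note: 0% = plate neutral control median and 100% = total signal loss; the record names both 10 and 1 µM as test concentration; the first replicate is given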
Calb FLC = affects C. albicans growth with fluconazole; AID 1979; growth inhibition, % (no concentration beside the values); actives 0.57% (n = 300,000); C. albicans CaCi-2 (fluconazole-resistant clinical isolate) + fluconazole, Alamar Blue growth, 48 h;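 active = most replicates above 75%; inconclusive = exactly half above 75%; inactive = most below 75%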;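 note: all wells also contain fluconazole at 8 µg/ml as a sub-toxic cotreatment; 0% = median of DMSO wells and 100% = median of geldanamycin control wells; wells of about 8 µL received 7.5 nL stock; the first replicate is given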
Beta apoptosis = blocks beta cell apoptosis; protection from apoptosis, % (concentration not given with the values); actives 0.8% (n = 300,000); INS-1E cytokine-induced death, ATP luminescence, 48 h; percent of positive-control rescue, neutral wells zero;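 active = all replicates at 75% or more, or half of them and the mean; inconclusive = half reach 75% but not the mean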;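 note: 0% = cytokine-treated negative control wells and 100% = positive control rescue; higher means more ATP so stronger rescue from cytokine killing; wells of about 40 µL received 100 nL stock; the first replicate is given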
A1 inh = inhibitors of the anti-apoptotic protein A1, read as caspase activation; MEF A1-2A-BIM cells, Caspase-Glo 3/7 luminescence, 3 h; percent of clofoctol response, vehicle zero; caspase activation, % (no concentration beside the values); actives 0.066% (n = 330,000); AID 2462;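 active = over half of replicate activation scores above 10%, or exactly half above 10 with the replicate mean above 10; inconclusive = replicate mean below 10 yet half the replicates above 10; inactive = over half of replicates below 10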;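 note: wells of about 30 µL received 50 nL stock; many hits fall short of the cut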
RanGTP-Imp inh = inhibitors of RanGTP-importin-beta interaction, primary screen, biochemical, FRET, CFP-Ran, YFP-importin-beta, homogeneous; inhibition, % (no concentration beside the values); AID 2216; cell-free CFP-Ran/YFP-importin-beta FRET ratio; actives 1.1% (n = 300,000);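 active = most replicates above 15%; inconclusive = exactly half above 15%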;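 note: 0% = DMSO wells and 100% = Ran loaded with GDP instead of GTP; wells of about 40 µL received 100 nL stock; the first replicate is given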
T cruzi repl = T. cruzi replication inhibition; T. cruzi beta-gal in NIH3T3, luminescence, 90 h; inhibition, % (no concentration beside the values); actives 1.4% (n = 300,000);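 active = mean inhibition across valid replicates above about 55%, limit read from the data; inconclusive = mean below that limit but half or more replicates reach it; inactive = mean below it, under half of replicates reach it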;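 note: signal also drops with host cell toxicity which is not excluded here; 0% = plate median of DMSO wells and 100% = zero luminescence signal; higher percent means less beta-gal luminescence so fewer parasites; stock transfer was 50 nL into about 50 µL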
Vif A3G = HIV-1 Vif–A3G interaction blockers – biochemical, TR-FRET, GST-Vif 1-94, biotin-A3G peptide, dose response retest, primary screen (AID 1117319); actives 0.57% (n = 260,000); TR-FRET GST-Vif / biotin-A3G peptide binding; higher % means a stronger effect; test concentration not given here; strong numbers were not always called active; one-dose inhibition, %; IC50 in µM for titrated hits;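 active = above the screen mean plus three standard deviations and confirmed in dose response; inconclusive = results disagree or hit not tested in dose response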;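 note: Vif residues 1-94 fused to GST binding biotinylated APOBEC3G peptide 110-148; 0% = full assay without inhibitor and 100% = GST in place of GST-Vif; retest series ran down from 100 µM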
LANA-H2B inh = blocks KSHV LANA binding to histone H2A/H2B; cell-free LANA-H2A/H2B peptide, fluorescence polarization; Q9QR71; AID 2629; actives 0.6% (n = 320,000); inhibition, % (no concentration beside the values); in the data active = inhibition mostly above about 10%, no sharp cut-off; inactive = mostly below about 6.7%;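 note: stock transfer was 7.5 nL into about 10 µL; 0% = median of vehicle wells and 100% = median of positive control wells; one replicate is shown; the record names a cut of 25% in any replicate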
Target sequence (Q9QR71 whole entry, looked up): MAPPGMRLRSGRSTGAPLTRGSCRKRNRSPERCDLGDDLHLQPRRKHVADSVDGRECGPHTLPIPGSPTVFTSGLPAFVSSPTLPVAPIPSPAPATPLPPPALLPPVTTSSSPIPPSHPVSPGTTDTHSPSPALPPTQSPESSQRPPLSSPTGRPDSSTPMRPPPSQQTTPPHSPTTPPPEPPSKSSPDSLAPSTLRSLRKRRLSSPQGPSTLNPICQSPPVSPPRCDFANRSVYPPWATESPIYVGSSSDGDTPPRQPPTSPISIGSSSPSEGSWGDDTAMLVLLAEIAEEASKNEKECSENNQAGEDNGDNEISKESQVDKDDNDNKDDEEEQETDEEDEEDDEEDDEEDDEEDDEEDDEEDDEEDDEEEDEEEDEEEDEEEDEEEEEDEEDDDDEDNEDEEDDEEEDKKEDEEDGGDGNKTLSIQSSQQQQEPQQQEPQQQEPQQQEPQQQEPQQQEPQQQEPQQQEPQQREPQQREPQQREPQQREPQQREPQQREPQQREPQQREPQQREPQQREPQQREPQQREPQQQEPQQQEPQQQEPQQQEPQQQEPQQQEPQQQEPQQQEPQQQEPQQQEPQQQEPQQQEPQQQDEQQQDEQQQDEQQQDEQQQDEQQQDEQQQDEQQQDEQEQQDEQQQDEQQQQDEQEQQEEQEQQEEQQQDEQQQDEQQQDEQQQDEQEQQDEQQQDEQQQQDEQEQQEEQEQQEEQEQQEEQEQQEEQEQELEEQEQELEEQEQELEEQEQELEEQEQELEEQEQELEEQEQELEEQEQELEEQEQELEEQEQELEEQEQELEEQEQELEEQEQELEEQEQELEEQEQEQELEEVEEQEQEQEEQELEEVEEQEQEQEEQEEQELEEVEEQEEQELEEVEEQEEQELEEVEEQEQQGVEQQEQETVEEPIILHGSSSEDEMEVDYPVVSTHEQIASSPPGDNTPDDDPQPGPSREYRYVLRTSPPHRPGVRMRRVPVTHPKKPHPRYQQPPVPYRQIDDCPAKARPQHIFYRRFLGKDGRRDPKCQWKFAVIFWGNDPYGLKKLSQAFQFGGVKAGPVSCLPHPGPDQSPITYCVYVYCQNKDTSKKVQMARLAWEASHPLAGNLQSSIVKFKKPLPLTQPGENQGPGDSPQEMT
* = called active by the depositor; & = joins results of further samples.

Screening Cc1ccc(NCc2n[nH]c(=S)n2-c2ccccc2)cc1 returned MLL AF4-AF9 inh -5.3, Calb FLC 0, Beta apoptosis -2, A1 inh 1.1, RanGTP-Imp inh 1.9, T cruzi repl -13, Vif A3G 5% and LANA-H2B inh 2.2.
CN(CC(=O)Nc1ccc(OC(F)(F)F)cc1)C(=O)C1CCC1 was read as MLL AF4-AF9 inh -2.6, Beta apoptosis -2, A1 inh -0.1, Vif A3G -4% and LANA-H2B inh -2.3.
For CCOC(=O)c1c(C(F)(F)C(F)(F)C(F)(F)C(F)(F)F)n[nH]c1C the results were Calb FLC -9, Beta apoptosis 4, A1 inh 0.0, RanGTP-Imp inh -13, T cruzi repl 3, Vif A3G 1% and LANA-H2B inh 5.2.
CC(C)OCCCNC(=O)c1cccc(NC(=O)c2ccccc2)c1 was read as MLL AF4-AF9 inh -1.2, Calb FLC inconclusive, Beta apoptosis -8, A1 inh -0.3, RanGTP-Imp inh 3.3, T cruzi repl -17, Vif A3G -1% and LANA-H2B inh 0.5.
O=S(=O)(NC1CC2CCC1C2)c1ccc(Br)cc1 (stereo not given) was read as MLL AF4-AF9 inh -3.4, Calb FLC -70, Beta apoptosis -6, A1 inh 0.9, RanGTP-Imp inh -3.4, T cruzi repl -3 and LANA-H2B inh -0.9.
Screening COc1ccc(NC(=O)CCCC(=O)c2ccccc2)c(OC)c1 returned MLL AF4-AF9 inh -1.1, Calb FLC 39, Beta apoptosis 6, A1 inh -0.9, RanGTP-Imp inh 0.5, T cruzi repl -1, Vif A3G -6% and LANA-H2B inh 4.3.
For CCOC(=O)CCn1nc(-c2ccc(C)cc2)c2ccccc2c1=O the results were MLL AF4-AF9 inh 1.0, Calb FLC 25, Beta apoptosis 0, A1 inh 0.1, RanGTP-Imp inh 0.8, T cruzi repl 14, Vif A3G -8% and LANA-H2B inh -1.1.
`O=C(O)c1ccccc1C(=O)N(Cc1ccccc1)Cc1ccccc1` gave Calb FLC 0, Beta apoptosis -2, A1 inh 0.0, RanGTP-Imp inh 0.3, T cruzi repl -1, Vif A3G 1% and LANA-H2B inh -1.4.
COc1ccc(C2=NN(C3=NN=C(N)Cc4ncnn43)C(O)(C(F)(F)F)C2)cc1 (stereo not given) was read as MLL AF4-AF9 inh 1.0, Calb FLC -11, Beta apoptosis -8, A1 inh 0.5, RanGTP-Imp inh 1.0, T cruzi repl -13, Vif A3G -3% and LANA-H2B inh -2.4.
CC(=O)Nc1ccc(S(=O)(=O)N2CCN(S(=O)(=O)N3CCCCC3)CC2)cc1 was read as MLL AF4-AF9 inh -11, Calb FLC 4, Beta apoptosis -3, A1 inh 0.3, RanGTP-Imp inh 1.3, T cruzi repl -4, Vif A3G -5% and LANA-H2B inh -2.8.
`Cc1nc2ccccn2c1C(=O)Nc1ccc2c(c1)OCCO2` gave Calb FLC 51, Beta apoptosis -3, A1 inh -1.2, RanGTP-Imp inh -1.2, T cruzi repl -11, Vif A3G 5% and LANA-H2B inh 2.0.
CCOC(=O)C1CCN(C(c2cc3c(C)ccc(C)c3[nH]c2=O)c2nnnn2C2CCCCC2)CC1 (stereo not given) was read as Calb FLC 24, Beta apoptosis 2, A1 inh 0.8, RanGTP-Imp inh -1.5, T cruzi repl 11, Vif A3G 3%&-6% and LANA-H2B inh -4.3.
Cc1ccc(N2CC(C(=O)Nc3cc(C)ccc3F)CC2=O)cc1 (stereo not given) was read as Calb FLC 8, Beta apoptosis 7, A1 inh 0.3, RanGTP-Imp inh 6.3, T cruzi repl -13, Vif A3G 15% and LANA-H2B inh 2.7.
CC1=C(C(=O)Nc2ccccc2)C(c2ccncc2)C(C#N)=C(SCC(=O)NC(C)C)N1 (stereo not given) was read as Calb FLC 7, Beta apoptosis -4, A1 inh 0.0, RanGTP-Imp inh 0.1, T cruzi repl 14, Vif A3G 27% and LANA-H2B inh 1.7.
`O=C(O)C1C2C=CC(C3CC23)C1C(=O)NCCc1ccccc1` (stereo not given) gave Calb FLC -3, Beta apoptosis -2, A1 inh -0.2, RanGTP-Imp inh -3.8, T cruzi repl -9, Vif A3G 8% and LANA-H2B inh 7.8.
CCC(NC(=O)CCc1c(C)c2cc3c4c(oc3cc2oc1=O)CCCC4)C(=O)O (stereo not given) was read as MLL AF4-AF9 inh -1.5, Calb FLC 0, Beta apoptosis -2, A1 inh -0.2, RanGTP-Imp inh 1.4, T cruzi repl 0, Vif A3G -11% and LANA-H2B inh 2.4.
For CSc1ccccc1C(=O)NCCCn1ccnc1 the results were MLL AF4-AF9 inh -1.2, Calb FLC 0, Beta apoptosis 5, A1 inh -0.3, RanGTP-Imp inh 2.5, T cruzi repl -13 and LANA-H2B inh -0.7.
CCOc1cc(N2CCOCC2)c(OCC)cc1NC(=O)c1oc2ccccc2c1C was read as MLL AF4-AF9 inh -1.9, Calb FLC -6, Beta apoptosis 2, A1 inh 0.4, RanGTP-Imp inh -3.8, T cruzi repl 47, Vif A3G 18% and LANA-H2B inh -0.4.
O=[N+]([O-])c1ccc(/C([O-])=C(/C(=S)Nc2ccccc2F)[n+]2ccccc2)cc1 was read as MLL AF4-AF9 inh -4.4, Calb FLC 1, Beta apoptosis 4, A1 inh 0.7, RanGTP-Imp inh 2.1, T cruzi repl -14, Vif A3G inconclusive and LANA-H2B inh -3.0.
For O=C(CCCN1C(=O)CCC1=O)Nc1ccccc1F the results were Calb FLC -7, Beta apoptosis -4, A1 inh -0.1, RanGTP-Imp inh 8.2, T cruzi repl 11, Vif A3G -1% and LANA-H2B inh 2.8.
CCN(CC(=O)NCCCN1CCOCC1)S(=O)(=O)c1ccc(F)cc1 was read as MLL AF4-AF9 inh 5.5, Calb FLC 16, Beta apoptosis -6, A1 inh 0.4, RanGTP-Imp inh 1.3, T cruzi repl -5 and LANA-H2B inh -0.2.
CCc1cc(C(=O)Nc2ccccc2)cs1 was read as Calb FLC -12, Beta apoptosis -5, A1 inh -8.1, RanGTP-Imp inh -0.9, T cruzi repl -3, Vif A3G 20% and LANA-H2B inh -0.6.
`COc1ccc(/C=C(/NC(=O)c2ccccc2)C(=O)NCC2CCCO2)cc1` (stereo not given) gave MLL AF4-AF9 inh 1.5, Calb FLC 0, Beta apoptosis -1, A1 inh 0.2, RanGTP-Imp inh 1.9, T cruzi repl -9 and LANA-H2B inh -1.3.
`COc1ccc(-c2nnc3sc(COc4ccc(C)cc4)nn23)cc1` gave Calb FLC 2, Beta apoptosis -1, A1 inh -0.9, RanGTP-Imp inh 7.1, T cruzi repl 1, Vif A3G 1% and LANA-H2B inh -4.4.
`CCOC(=O)c1c(NC(=O)CC2SC(N)=NC2=O)sc(C)c1C` (stereo not given) gave MLL AF4-AF9 inh -9.5, Calb FLC 31, Beta apoptosis -5, A1 inh 0.8, RanGTP-Imp inh 2.9, T cruzi repl 4, Vif A3G 1% and LANA-H2B inh 1.2.
Screening O=C(Nc1ccc2c(c1)OCO2)c1c(F)cccc1F returned Calb FLC -8, Beta apoptosis -1, A1 inh -4.9, RanGTP-Imp inh 5.0, T cruzi repl 7, Vif A3G 6% and LANA-H2B inh -3.3.
Screening CCCCCCn1c(=O)[nH]c2nc3cc(N)ccc3nc2c1=O returned Calb FLC -130, Beta apoptosis -13, A1 inh -0.9, RanGTP-Imp inh -400, T cruzi repl -1 and LANA-H2B inh 42*.
O=C(c1ccco1)N1N=C(c2ccco2)CC1c1ccc(Cl)cc1Cl (stereo not given) was read as MLL AF4-AF9 inh 1.1, Beta apoptosis 2, A1 inh 0.5, Vif A3G -5% and LANA-H2B inh active.
`COc1ccc(-n2c3c(cc(C(=O)N4CCC(C)CC4)c2=O)C(=O)CC(C)(C)C3)cc1` gave MLL AF4-AF9 inh -10, Calb FLC 10, Beta apoptosis -4, A1 inh -0.2, RanGTP-Imp inh -1.6, T cruzi repl 0, Vif A3G 0% and LANA-H2B inh -0.2.
`COc1cc(-c2noc(C)c2/C=C/c2ccc(N)cc2)cc(OC)c1OC` gave MLL AF4-AF9 inh 1.1, Calb FLC 7, Beta apoptosis 52, A1 inh -0.1, RanGTP-Imp inh -0.5, T cruzi repl 33 and LANA-H2B inh -1.6.
`Cc1cc(C)nc(/N=C2\NC(=O)CC(C(=O)O)N2c2ccc(Cl)cc2Cl)n1` (stereo not given) gave MLL AF4-AF9 inh 0.0, Calb FLC 1, Beta apoptosis 0, A1 inh -0.1, RanGTP-Imp inh -0.8, T cruzi repl -7 and LANA-H2B inh 1.7.
For COc1ccc(NC(=S)Nc2cccc(S(=O)(=O)N3CCCCC3)c2)cc1 the results were Calb FLC 0, Beta apoptosis 2, A1 inh 1.9, RanGTP-Imp inh inconclusive, T cruzi repl -16, Vif A3G -11% and LANA-H2B inh 0.9.
N#CC1=C(N)Oc2n[nH]c(-c3cccs3)c2C1C1C=CCCC1 (stereo not given) was read as Calb FLC 5, Beta apoptosis 2, A1 inh 0.8, RanGTP-Imp inh 0.2, T cruzi repl 1, Vif A3G 4% and LANA-H2B inh 5.8.
`O=C(COC(=O)COc1ccc(Cl)cc1Cl)NC1CCS(=O)(=O)C1` (stereo not given) gave MLL AF4-AF9 inh -2.9, Beta apoptosis 2, A1 inh -1.2 and LANA-H2B inh 5.6.
For CCCCC/C(=N\NC(=O)Nc1ccccc1)c1ccccc1 the results were MLL AF4-AF9 inh 1.9, Calb FLC -22, Beta apoptosis 18, A1 inh -0.5, RanGTP-Imp inh 3.4, T cruzi repl 22, Vif A3G 7% and LANA-H2B inh 3.0.
For COc1cccc(-c2c(C(=O)N/N=C/C3CC=CCC3)nnn2-c2nonc2N)c1 (stereo not given) the results were MLL AF4-AF9 inh -3.1, Calb FLC 15, Beta apoptosis -5, A1 inh 0.9, RanGTP-Imp inh 3.2, T cruzi repl 8, Vif A3G 3% and LANA-H2B inh 8.6.
